Assay outcomes deposited in PubChem by Broad Institute.
FGF22 binding = binders of human FGF22 protein, primary screen, FGF22 synaptogenesis inhibitor project, biophysical, thermal shift, single point; Fibroblast growth factor 22 (Homo sapiens), Q9HCT0; recombinant FGF22 thermal shift, SYPRO orange fluorescence; percent of sucrose octasulfate shift, DMSO zero; calls only at 9.99 µM; 340,000 compounds, 1.5% hits; AID 651658, 2012;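 active = melting point raised past a set limit in the mean and every replicate; three in four hits are not shown here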
Target sequence (Q9HCT0 whole entry, looked up): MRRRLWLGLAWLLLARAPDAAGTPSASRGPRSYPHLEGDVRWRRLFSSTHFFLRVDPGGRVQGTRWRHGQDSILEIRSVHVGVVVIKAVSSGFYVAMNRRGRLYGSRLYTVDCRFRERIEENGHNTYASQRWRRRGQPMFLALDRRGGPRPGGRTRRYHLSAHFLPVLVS
AF4-AF9 inh = inhibitors of AF4 peptide binding to AF9, primary screen, biochemical, AlphaScreen, biotin-AF4 peptide, FLAG-AF9, single point; inhibition, % at 10 µM; 350,000 compounds, 0.47% hits; Protein AF-9 (Homo sapiens), P42568; AID 651704, 2012;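 active = every replicate reaching a set inhibition limit, whatever the replicate mean, cut at about 25% in these data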;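 note: 0% = plate neutral control median and 100% = total signal loss; the record names both 10 and 1 µM as test concentration; the first replicate is given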
Target sequence (P42568 whole entry, looked up): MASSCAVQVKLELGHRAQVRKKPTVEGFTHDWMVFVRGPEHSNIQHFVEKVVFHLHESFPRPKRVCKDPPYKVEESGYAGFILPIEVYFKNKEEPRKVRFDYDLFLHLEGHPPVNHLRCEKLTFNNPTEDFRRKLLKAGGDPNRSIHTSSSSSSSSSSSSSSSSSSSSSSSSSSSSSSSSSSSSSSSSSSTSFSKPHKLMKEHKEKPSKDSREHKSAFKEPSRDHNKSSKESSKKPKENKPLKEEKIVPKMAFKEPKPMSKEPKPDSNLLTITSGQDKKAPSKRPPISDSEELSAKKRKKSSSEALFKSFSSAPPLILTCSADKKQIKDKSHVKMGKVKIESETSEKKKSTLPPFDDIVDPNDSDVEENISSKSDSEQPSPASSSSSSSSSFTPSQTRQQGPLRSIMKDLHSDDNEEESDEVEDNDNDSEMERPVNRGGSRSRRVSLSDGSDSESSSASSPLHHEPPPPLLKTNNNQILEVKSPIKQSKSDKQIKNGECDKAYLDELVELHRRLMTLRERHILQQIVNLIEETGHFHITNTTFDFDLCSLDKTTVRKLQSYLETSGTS
rRNA inh HTS = reduced GFP signal of wild-type E. coli, primary screen, bacterial rRNA inhibitor project, GFP/RFP fluorescence, OD600, single point | E. coli WT GFP vs humanized-ribosome RFP mutants, 24 h; hits give low values; DMSO median 0, no signal -100 | GFP signal change (wild-type ribosome), % (concentration not given with the values) | 350,000 compounds, 1.6% hits | AID 720706, 2013;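 active = significant combined selectivity score with lowered wild-type GFP, culture density cut under 30%, mutant RFP and density less affected; inactive = any of these conditions unmet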; note: one replicate is shown; some compounds called inactive have numbers as strong as hits
rRNA inh HTS OD600 = also measured in rRNA inh HTS; calls as there; OD600 change, %; measured here: OD600 growth;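 optical density of the mix in the first replicate; 0 = DMSO median and -100 = no signal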
rRNA inh HTS RFP = recorded beside rRNA inh HTS, whose call it bears; RFP signal change, %; measured here: RFP humanized mutant strains;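 first replicate; 0 = DMSO median and -100 = no signal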
Starred values were filed as active, the others as inactive; i = inactive; + = active, no number. The list is partial; count on the stated rates, not on these rows.

SMILES	rRNA inh HTS OD600	FGF22 binding	rRNA inh HTS RFP	rRNA inh HTS	AF4-AF9 inh
Cc1noc(C)c1S(=O)(=O)N(C)C[C@H]1OCCCC[C@H](C)Oc2ccc(NC(=O)C3CCCCC3)cc2C(=O)N([C@@H](C)CO)C[C@@H]1C	-17	i	2.7	-3	-3.4
C[C@H](CO)N1C[C@H](C)[C@@H](CN(C)CC2CCCC2)Oc2cc(C#CC(C)(C)O)ccc2S1(=O)=O	11	i	0.7	0	0.0
CNC[C@@H]1OCCCC[C@@H](C)Oc2ccc(NC(=O)Nc3ccc(C(F)(F)F)cc3)cc2C(=O)N([C@H](C)CO)C[C@H]1C	-66	i	33	-30	1.1
COc1ccc(Cl)cc1-c1cc(C(=O)NCc2ccc(C(F)(F)F)cc2)[nH]n1	-1	i	3.0	-10	0.9
C[C@@H]1CN([C@H](C)CO)C(=O)c2cc(NC(=O)CCN3CCOCC3)ccc2O[C@H]1CN(C)C(=O)Nc1cccc2ccccc12	-1	i	1.5	8	0.6
C[C@@H]1CN([C@H](C)CO)C(=O)c2cc(-c3cccc(F)c3)cnc2O[C@@H]1CN(C)Cc1cncnc1	5	i	-0.5	0	-8.9
C[C@@H]1CN([C@@H](C)CO)C(=O)Cc2cc(NS(=O)(=O)c3ccc(F)cc3)ccc2O[C@H]1CN(C)C(=O)Nc1ccc(C(F)(F)F)cc1	-8	i	0.4	2	-0.7
COc1ccc(S(=O)(=O)N(C)C[C@@H]2Oc3ccc(NC(=O)Nc4ccc(C(F)(F)F)cc4)cc3C(=O)N([C@@H](C)CO)C[C@@H]2C)cc1	-4	i	-1.3	-1	-0.7
COCC(C)NC(=O)C1CC(=O)N(CCc2ccc(F)cc2)C1 (centres undefined)	3	i	-0.8	4	-1.4
Cc1noc(C)c1NC(=O)N(C)C[C@@H]1Oc2ccc(NC(=O)Nc3ccc4c(c3)OCO4)cc2CC(=O)N([C@@H](C)CO)C[C@@H]1C	-6	i	-0.9	0	-12
CCCNC(=O)N(C)C[C@H]1Oc2ncc(C#Cc3ccncc3)cc2C(=O)N([C@@H](C)CO)C[C@@H]1C	3	i	0.2	-5	-8.4
O=NN(C(=O)NC1CCC(C(=O)O)CC1)C1CCC(C(=O)O)CC1 (centres undefined)	4	i	3.2	10	-6.9
CCCCc1c(-c2ccccc2OC)ncn1Cc1ccc(F)cc1F	-43	i	-0.8	-24	6.4
Cc1noc(C)c1NC(=O)N(C)C[C@@H]1Oc2c(NC(=O)Nc3cccc4ccccc34)cccc2C(=O)N([C@@H](C)CO)C[C@@H]1C	-13	i	0.2	-8	1.1
COc1ccc(NC(=O)N(C)C[C@H]2OCc3ccccc3-c3c(n(C)c4ccccc34)C(=O)N([C@@H](C)CO)C[C@@H]2C)c(OC)c1	-3	i	16	-5	9.3
COc1ccc(CN2[C@@H]3CN(C(=O)CC(F)(F)F)c4ccccc4[C@@H]3[C@@H]2CO)cc1	-4	i	2.2	0	-0.9
O=C(C[C@@H]1C[C@@H]2c3cc(NC(=O)C4CCOCC4)ccc3O[C@@H]2[C@H](CO)O1)NCc1cc(F)ccc1F	-2	i	-1.5	6	7.2
C/C=C/c1ccc([C@@H]2[C@@H](CNC(=O)C3CC3)N(C(=O)CC)[C@H]2CO)cc1	-3	i	-1.0	-3	-2.5
C[C@@H]1CN([C@@H](C)CO)C(=O)c2cccc(NC(=O)c3ccc(-c4nccs4)cc3)c2O[C@@H]1CN(C)C(=O)Nc1ccc(C(F)(F)F)cc1	1	+	3.0	-1	5.4
COc1cccc(S(=O)(=O)Nc2ccc3c(c2)[C@@H]2C[C@H](CC(=O)N4CCCCC4)O[C@H](CO)[C@@H]2O3)c1	-17	i	-0.3	-6	1.1

Five entries already listed, ordered by their value in rRNA inh HTS OD600, rising.
| molecule | rRNA inh HTS OD600 | rRNA inh HTS RFP | rRNA inh HTS | AF4-AF9 inh |
| --- | --- | --- | --- | --- |
| CCCCc1c(-c2ccccc2OC)ncn1Cc1ccc(F)cc1F | -43 | -0.8 | -24 | 6.4 |
| COc1ccc(S(=O)(=O)N(C)C[C@@H]2Oc3ccc(NC(=O)Nc4ccc(C(F)(F)F)cc4)cc3C(=O)N([C@@H](C)CO)C[C@@H]2C)cc1 | -4 | -1.3 | -1 | -0.7 |
| O=NN(C(=O)NC1CCC(C(=O)O)CC1)C1CCC(C(=O)O)CC1 (centres undefined) | 4 | 3.2 | 10 | -6.9 |
| C[C@@H]1CN([C@H](C)CO)C(=O)c2cc(-c3cccc(F)c3)cnc2O[C@@H]1CN(C)Cc1cncnc1 | 5 | -0.5 | 0 | -8.9 |
| C[C@H](CO)N1C[C@H](C)[C@@H](CN(C)CC2CCCC2)Oc2cc(C#CC(C)(C)O)ccc2S1(=O)=O | 11 | 0.7 | 0 | 0.0 |

Laid out differently: entries from further up
The line under a structure holds: rRNA inh HTS OD600, FGF22 binding, rRNA inh HTS RFP, rRNA inh HTS, AF4-AF9 inh
COc1ccc(S(=O)(=O)N(C)C[C@@H]2Oc3ccc(NC(=O)Nc4ccc(C(F)(F)F)cc4)cc3C(=O)N([C@@H](C)CO)C[C@@H]2C)cc1
→ -4, i, -1.3, -1, -0.7
COCC(C)NC(=O)C1CC(=O)N(CCc2ccc(F)cc2)C1 (centres undefined)
→ 3, i, -0.8, 4, -1.4

Additional records
SMILES	rRNA inh HTS OD600	FGF22 binding	rRNA inh HTS RFP	rRNA inh HTS	AF4-AF9 inh
O=C(C(=O)N1CCN(C(=O)c2cc(C(F)(F)F)cc(C(F)(F)F)c2)CC1)c1cccc(C(F)(F)F)c1	8	i	-2.4	10	2.5
COC(=O)[C@]12C[C@H](CC(=O)N3CCCC3)C(=O)N(Cc3ccc4c(c3)OCO4)C1=C[C@H](COCc1ccccc1)O[C@@H]2C	-26	i	6.0	-16	1.0
CCNC(=O)Nc1ccc2c(c1)C(=O)N(C)[C@@H]1CC[C@H](CC(=O)NCCOC)O[C@H]1CO2	0	i	-2.1	1	-0.7
CCCC(=O)Nc1ccc2c(c1)OC[C@@H](C)N(Cc1ccccn1)C[C@@H](C)[C@@H](OC)CN(C)C2=O	2	i	-0.9	-1	-2.3
CCC(=O)N1CCC2(CC1)CN(C(=O)CN1CCOCC1)[C@H](CO)c1c2c2ccc(OC)cc2n1C	4	i	-4.3	3	-0.9
CO[C@H]1CN(C)C(=O)c2cc(NC(=O)C3CCOCC3)ccc2OC[C@H](C)N(C)C[C@H]1C	0	i	-0.6	-2	-0.5
N#CCCN(C(=O)COC(=O)C1CCN(S(=O)(=O)c2ccccc2C(F)(F)F)CC1)c1ccccc1	-6	i	4.8	-4	-2.6
C[C@@H]1CN([C@H](C)CO)S(=O)(=O)c2ccc(C#Cc3cccc(F)c3)cc2O[C@@H]1CN(C)C	-10	i	25	6	10
N#C[C@H]1[C@@H](c2ccccc2-c2ccccc2F)[C@H](CO)N1C(=O)C1CCOCC1	6	i	-2.1	2	0.9
CN(C)CC(=O)N[C@H]1CC[C@H](CCn2cc(C3CCCCC3)nn2)O[C@H]1CO	1	i	0.4	-1	-0.1
O=C(C[C@@H]1C=C[C@H](NC(=O)CC2CC2)[C@@H](CO)O1)NCc1ccc(-c2ccccc2)cc1	-6	i	0.3	-6	-0.5
C[C@H](CO)N1C[C@H](C)[C@H](CN(C)Cc2ccncc2)Oc2ccc(NC(=O)CCN3CCOCC3)cc2C1=O	8	i	-0.1	1	-2.6
COc1ccccc1NC(=O)N[C@H]1CC[C@@H](CC(=O)N2CCC(Cc3ccccc3)CC2)O[C@@H]1CO	-9	i	-4.5	-7	-0.1
O=C(C[C@H]1C[C@H]2c3cc(NC(=O)C4CCOCC4)ccc3O[C@H]2[C@H](CO)O1)NCc1ccccn1	2	i	-1.2	2	-3.4
CS(=O)(=O)N1CC(=O)N2[C@H](C1)[C@H](c1ccc(C#CCC3CCCC3)cc1)[C@@H]2CO	-56	i	20	-28	-1.0
C[C@@H]1CN([C@@H](C)CO)C(=O)c2cc(C#Cc3ccccc3)cnc2O[C@H]1CN(C)C(=O)C1CC1	-2	i	2.3	-5	-6.7
CC(C)NC(=O)N(C)C[C@@H]1OCCCC[C@H](C)Oc2ccc(NC(=O)c3ccccc3)cc2C(=O)N([C@H](C)CO)C[C@@H]1C	-19	i	-2.0	-1	-3.8
COc1ccc(-c2ccc([C@@H]3[C@H](C#N)N(C(=O)C4CCCC4)[C@H]3CO)cc2)cc1	2	i	-0.8	0	-2.8
O=S(=O)(Nc1ccccc1Br)c1cccc2cccnc12	-4	i	-5.8	-5	0.3
C[C@@H]1CN([C@H](C)CO)C(=O)Cc2cc(NC(=O)c3ccncc3)ccc2O[C@@H]1CN(C)Cc1ccc(C(F)(F)F)cc1	-4	i	-0.9	1	-4.0

Next section:
SMILES	rRNA inh HTS OD600	FGF22 binding	rRNA inh HTS RFP	rRNA inh HTS	AF4-AF9 inh
C#CCN(C[C@H]1[C@H](OC(=O)NCCCCCC)[C@H](OC(=O)NCCCCCC)CN(C(=O)OC(C)C)N1C(=O)OC(C)C)S(=O)(=O)c1ccc(C)cc1	18	i	-0.8	17	-1.5
CNC[C@H]1OCCCC[C@@H](C)Oc2ccc(NS(=O)(=O)c3ccccc3)cc2C(=O)N([C@@H](C)CO)C[C@@H]1C	1	i	0.8	7	-0.6
COc1cccc(OC)c1C(=O)N[C@@H]1C(=O)N2[C@@H]1SC(C)(C)[C@@H]2C(=O)O	-3	i	0.1	1	-0.9
COc1ccc(S(=O)(=O)N(C)C[C@@H]2Oc3ccc(NS(=O)(=O)c4cn(C)cn4)cc3CC(=O)N([C@H](C)CO)C[C@H]2C)cc1	4	i	-0.6	2	-4.4
CO[C@@H]1CN(C)C(=O)c2ccc(NC(=O)c3cc(C)on3)cc2OC[C@@H](C)N(C)C[C@@H]1C	3	i	-4.6	0	-1.5
O=C(C[C@@H]1C=C[C@@H](NC(=O)C2CC2)[C@H](CO)O1)Nc1nccs1	2	i	-0.8	2	1.9
C[C@@H]1CN([C@@H](C)CO)C(=O)c2cc(-c3ccc(F)cc3)cnc2O[C@@H]1CN(C)C(=O)Cc1ccccc1	-5	i	-0.5	-3	-4.5
CNC[C@H]1Oc2c(N)cccc2C(=O)N([C@H](C)CO)C[C@H]1C	6	i	-2.1	1	0.8
OC(c1ccccc1)c1ncc(-c2cccc(C(F)(F)F)c2)[nH]1 (centres undefined)	-14	i	3.4	9	9.0
COc1ccccc1C(=O)Nc1ccc2c(c1)C(=O)N(C)C[C@H](OC)[C@H](C)CN(C(C)=O)[C@H](C)CO2	1	i	-1.5	-3	0.8
C[C@@H]1CN([C@@H](C)CO)C(=O)c2cc(NS(C)(=O)=O)ccc2O[C@H]1CN(C)CC1CCCCC1	6	i	-1.6	0	-11
Cc1cc(C(=O)Nc2cccc3c2O[C@@H](CN(C)C(=O)Nc2ccc(F)cc2)[C@H](C)CN([C@@H](C)CO)C3=O)n(C)n1	1	i	-1.0	3	-1.4
CC(C)NC(=O)N(C)C[C@H]1Oc2ncc(C3=CCCCC3)cc2C(=O)N([C@H](C)CO)C[C@@H]1C	14	i	0.7	2	-12
C[C@@H]1CN([C@H](C)CO)C(=O)c2cccc(NS(=O)(=O)c3cccs3)c2O[C@@H]1CN(C)C(=O)Nc1ccc(C(F)(F)F)cc1	-33	i	-1.1	-24	2.6
Cc1ccc(NC(=O)C2(C)CCN2C(=O)Cc2ccccc2Cl)cc1C (centres undefined)	-27	i	-0.3	-11	-1.8
O=C(C[C@@H]1CC[C@@H](NC(=O)Cc2ccccn2)[C@H](CO)O1)NCCCN1CCOCC1	6	i	-2.5	4	-2.1
C[C@H](CO)N1C[C@H](C)[C@H](CN(C)C(=O)c2ccc(F)cc2)Oc2ncc(-c3ccncc3)cc2C1=O	5	i	-2.7	3	-3.3
Nc1ncnc(Nc2ccccc2Oc2ccccc2)n1	-5	i	-2.1	-1	-1.4
COCCCn1cc(CN2CC(N3CCCC3)CS2(=O)=O)nn1 (centres undefined)	11	i	3.3	24	-1.7
COc1ccc(NC(=O)Nc2ccc3c(c2)C(=O)N([C@H](C)CO)C[C@H](C)[C@@H](CN(C)Cc2ccc4c(c2)OCO4)O3)cc1	-11	i	1.7	0	10
O=C(C[C@H]1C[C@H]2c3cc(NC(=O)Nc4ccccc4F)ccc3O[C@H]2[C@@H](CO)O1)NCc1cc(F)ccc1F	2	i	3.1	-4	-4.6
CCC(=O)N1C[C@H]2[C@@H](c3ccccc31)[C@@H](CO)N2Cc1ccccc1F	0	i	0.8	-2	-4.7
Cc1cccc(-c2ccc([C@H]3[C@@H](CO)N4CCCCN(S(=O)(=O)c5cccs5)C[C@H]34)cc2)c1	-32	i	-8.5	-36	-0.2
